eIF4H inh: inhibitors of RNA binding by human eIF4H | AID 2012 | Q15056 | eIF4H fluorescence polarization binding assay | inhibition, % at 35 µM | 290,000 tested, 0.94% active;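 active = 50% or more with normal probe brightness, or confirmed in later tests; about a fifth of its hits are not listed in these tables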;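 note: calls also rest on retests at 20 µM and on dose response follow-up; 0% = protein and probe with vehicle and 100% = probe without protein; strong numbers were not always called active; many hits fall short of the cut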
PABP polyA inh: PABP-poly(A) binding inhibition; P11940; PABP-poly(A) RNA binding, fluorescence polarization; inhibition, % at 35 µM; 290,000 tested, 1% active; AID 2014;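 active = 50% or more with normal probe brightness, or confirmed in later tests; about a fifth of its hits are not listed in these tables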;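 note: calls also rest on retests at 20 µM and on dose response follow-up; controls were probe without protein and protein plus probe with vehicle; some compounds called inactive have numbers as strong as hits; many hits fall short of the cut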
Target sequence (P11940 whole entry, looked up): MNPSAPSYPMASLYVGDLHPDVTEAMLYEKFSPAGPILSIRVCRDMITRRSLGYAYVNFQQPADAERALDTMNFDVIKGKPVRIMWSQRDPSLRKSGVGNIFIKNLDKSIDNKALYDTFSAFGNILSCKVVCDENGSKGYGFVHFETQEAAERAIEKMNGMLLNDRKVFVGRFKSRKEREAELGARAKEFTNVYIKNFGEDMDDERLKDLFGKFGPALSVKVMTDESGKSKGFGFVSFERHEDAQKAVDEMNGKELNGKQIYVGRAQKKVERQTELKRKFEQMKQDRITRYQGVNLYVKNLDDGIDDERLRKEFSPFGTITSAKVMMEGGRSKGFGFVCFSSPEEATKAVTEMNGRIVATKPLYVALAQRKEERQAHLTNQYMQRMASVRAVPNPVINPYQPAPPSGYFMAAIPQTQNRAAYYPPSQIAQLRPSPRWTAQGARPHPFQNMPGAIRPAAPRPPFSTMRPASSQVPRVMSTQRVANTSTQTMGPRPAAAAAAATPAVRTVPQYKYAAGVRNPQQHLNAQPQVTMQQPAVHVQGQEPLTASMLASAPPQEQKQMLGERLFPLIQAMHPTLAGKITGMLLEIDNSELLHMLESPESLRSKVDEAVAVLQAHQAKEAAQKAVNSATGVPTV
CSC inhib: cancer stem cell inhibition; inhibition, % at 7.5 µM; 300,000 tested, 1.1% active; cancer stem cell-like cells viability, luminescence;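 active = mean at 75% or more and at least half the replicates too; tested in HMLE shEcad cells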;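 note: 0% = median of negative and 100% = median of positive control wells; the first replicate is given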
Rce1 inh: inhibitors of yeast Ras-converting enzyme | Q03530 | yeast membranes, quenched prenylated peptide cleavage fluorescence | calls only | 290,000 tested, 0.27% active | AID 2563;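 active = fall in fluorescence gain of 50% or more versus controls, with final raw signal at or below 3038400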;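 note: plate controls were neutral control wells for no effect and wells lacking membranes for full effect; tested at 10 µM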
UUG fidelity: yeast start codon fidelity modulation; S. cerevisiae UUG-firefly luciferase reporter, luminescence/redox ratio; activity score, % at 18.7 µM; 350,000 tested, 0.13% active;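 active = replicate mean at a twofold rise or more, about +100% in these data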;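 note: firefly luciferase made from a UUG start codon reports start codon fidelity; reporter light over untreated wells divided by growth signal over untreated wells; some hits fall short of that in this replicate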
Env fusion inh: inhibitors of HIV Env-mediated cell fusion; HeLa-JRFL Env/CEM21 cell fusion, luciferase; inhibition, % at 12.3 µM; 360,000 tested, 1.1% active; AID 651610;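 active = mean replicate inhibition score of at least 50 and every replicate individually at or above 50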;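 note: 0% = plate neutral controls and 100% = maraviroc near 300 nM; one replicate is shown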
MT1-MMP act inh: MT1-MMP (human) activation inhibition; 360,000 tested, 0.061% active; HT1080 RFP-PRO-GFP cells, GFP/RFP ratio fluorescence, overnight; percent of plate control window, DMSO zero; GFP/RFP ratio change, % at 20 µM;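 active = GFP/RFP ratio change of at least 30% with cell ATP level not reduced by more than half and red fluorescence within 50% of control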; note: strong numbers were not always called active
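Material – HT1080 RFP-PRO-GFP cells · Control set – DMSO wells and RFP-L50D-GFP cells · Incubation – overnight cell settling, then overnight compound exposure, 37 °C, 5% CO2 · Compound dosing – single-point 20 µM compound, 1% DMSO · Read-out – GFP/RFP fluorescence ratio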
eIF4H inh retest: recorded beside eIF4H inh, whose call it bears; inhibition, %; compound at 20 µM; confirmation average;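 mean of two retest wells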
PABP polyA inh retest: recorded beside PABP polyA inh, whose call it bears; inhibition, %; compound at 20 µM; confirmation repeats;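 mean of two retest wells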
MT1-MMP act inh RFP: also measured in MT1-MMP act inh; calls as there; RFP signal change, %; measured here: RFP expression control read;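 0 = vehicle wells; hits needed this value within 50% of zero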
The depositor's hits bear a star. These rows are one share of the data, so the mix of outcomes need not match the whole.

How did COc1cc(OC)c(NC(=O)c2ccc(F)cc2)cc1Cl do in these assays?
eIF4H inh: 0; PABP polyA inh: -4; CSC inhib: -52; Rce1 inh: inactive; UUG fidelity: -10; Env fusion inh: -2; MT1-MMP act inh: 1; MT1-MMP act inh RFP: 5

What do the screens show for `C/C(=N\NC(=O)C1CC1)c1ccc(N2CCOCC2)cc1`?
eIF4H inh: 4; PABP polyA inh: -8; CSC inhib: 10; Rce1 inh: inactive; Env fusion inh: -13; MT1-MMP act inh: 2; MT1-MMP act inh RFP: 4

How did CCOC(=O)C1=C(C)C(c2cccc(Oc3ccccc3)c2)NC(=S)N1 (configuration not stated) do in these assays?
eIF4H inh: 5; PABP polyA inh: 10; Rce1 inh: inactive; UUG fidelity: -24; Env fusion inh: 19; MT1-MMP act inh: 3; MT1-MMP act inh RFP: -8

Results for O=C(NCCCN1CCOCC1)/C(=C/c1ccc(F)cc1)NC(=O)c1ccccc1 ?
eIF4H inh: 6; PABP polyA inh: 10; CSC inhib: -16; Rce1 inh: inactive; Env fusion inh: 3; MT1-MMP act inh: 0; MT1-MMP act inh RFP: 5

What do the screens show for `CN(C)c1nccc(NCc2ccccc2)c1C#N`?
eIF4H inh: -4; PABP polyA inh: -11; CSC inhib: -8; Rce1 inh: inactive; Env fusion inh: -15; MT1-MMP act inh: -1; MT1-MMP act inh RFP: -1

What do the screens show for `O=C(NCC(=O)N1CCN(c2ncccn2)CC1)c1cccs1`?
eIF4H inh: -11; PABP polyA inh: -4; CSC inhib: -9; Rce1 inh: inactive; UUG fidelity: -20; MT1-MMP act inh: 2; MT1-MMP act inh RFP: 2

Results for CCOC(=O)C1CCCN(C(=O)c2ccc(NC(=O)CC3SC(N4CCCC4)=NC3=O)cc2)C1 (configuration not stated) ?
CSC inhib: -5; Rce1 inh: inactive; Env fusion inh: 3; MT1-MMP act inh: 4; MT1-MMP act inh RFP: 3

Results for CC1CCc2cc(F)ccc2N1S(=O)(=O)c1ccc(F)cc1 (configuration not stated) ?
eIF4H inh: 6; PABP polyA inh: -4; CSC inhib: -3; Rce1 inh: inactive; UUG fidelity: 3; Env fusion inh: 16; MT1-MMP act inh: -4; MT1-MMP act inh RFP: -1

How did Cn1cc(C(=O)N/N=C/C=C/c2ccccc2)ccc1=O do in these assays?
eIF4H inh: 14; PABP polyA inh: -4; CSC inhib: -20; Rce1 inh: inactive; UUG fidelity: -18; Env fusion inh: 23; MT1-MMP act inh: 3; MT1-MMP act inh RFP: 4

What do the screens show for `CCN(CC(=O)NCc1cccs1)C(=O)c1cccc(S(=O)(=O)Nc2ccc(F)cc2)c1`?
UUG fidelity: -17; Env fusion inh: -7; MT1-MMP act inh: -4; MT1-MMP act inh RFP: -3

Results for CCN1CCN(c2ccc(S(=O)(=O)N3CCCC3)cn2)CC1 ?
eIF4H inh: 6; PABP polyA inh: 1; CSC inhib: 1; Rce1 inh: inactive; Env fusion inh: -2; MT1-MMP act inh: -4; MT1-MMP act inh RFP: -2

Results for CN(C(=O)c1cccnc1)c1nnc(-c2ccccn2)s1 ?
eIF4H inh: -1; PABP polyA inh: -6; CSC inhib: -5; Rce1 inh: inactive; UUG fidelity: -14; MT1-MMP act inh: 4; MT1-MMP act inh RFP: 8

Results for CCC(=O)NCCCCCCCCCNC(=O)CC ?
eIF4H inh: 17; PABP polyA inh: 15; CSC inhib: 0; Rce1 inh: inactive; Env fusion inh: -194; MT1-MMP act inh: 1; MT1-MMP act inh RFP: 4

Results for CCN1C(=O)N[C@@H](c2ccccc2)C(C(=O)OC)=C1C ?
CSC inhib: -7; Rce1 inh: inactive; UUG fidelity: 1; Env fusion inh: -45; MT1-MMP act inh: -1; MT1-MMP act inh RFP: -1

What do the screens show for `COc1ccccc1-c1cc(C(=O)NCCN2CCOCC2)no1`?
eIF4H inh: -2; PABP polyA inh: -6; CSC inhib: 6; Rce1 inh: inactive; UUG fidelity: -9; Env fusion inh: -37; MT1-MMP act inh: 9; MT1-MMP act inh RFP: 4

How did CCOc1cc(C(=O)NC)cc(Br)c1OC do in these assays?
eIF4H inh: -2; PABP polyA inh: -5; CSC inhib: -3; Rce1 inh: inactive; UUG fidelity: -8; Env fusion inh: 20; MT1-MMP act inh: -2; MT1-MMP act inh RFP: -5

What do the screens show for `COCC(=O)N(C)c1nnc(-c2ccccn2)s1`?
eIF4H inh: -12; PABP polyA inh: -4; CSC inhib: 4; Rce1 inh: inactive; UUG fidelity: -15; MT1-MMP act inh: 8; MT1-MMP act inh RFP: 4

What do the screens show for `CCNC(=O)c1ccc(CSc2nc3ccccc3s2)cc1`?
eIF4H inh: -7; PABP polyA inh: -3; CSC inhib: 6; Rce1 inh: inactive; UUG fidelity: -8; Env fusion inh: -30; MT1-MMP act inh: -1; MT1-MMP act inh RFP: -17

What do the screens show for `O=C(Nc1ccc(C(=O)O)cc1)/C(=C\c1ccco1)NC(=O)c1ccccc1Cl`?
eIF4H inh: 28; PABP polyA inh: 18; Rce1 inh: inactive; UUG fidelity: -4; Env fusion inh: 1; MT1-MMP act inh: 1; MT1-MMP act inh RFP: 5

What do the screens show for `O=C(Cn1nc(C(F)(F)F)c2c1CCC2)Nc1ccccc1C(F)(F)F`?
eIF4H inh: 95; PABP polyA inh: 0; CSC inhib: -4; Rce1 inh: inactive; UUG fidelity: -11; MT1-MMP act inh: 2; eIF4H inh retest: -7; PABP polyA inh retest: 7; MT1-MMP act inh RFP: 3

How did COC(=O)c1ccc(NC(=O)CSc2nc3ncccc3[nH]2)cc1 do in these assays?
eIF4H inh: 2; PABP polyA inh: -6; CSC inhib: 5; Rce1 inh: inactive; UUG fidelity: -7; Env fusion inh: -14; MT1-MMP act inh: 3; MT1-MMP act inh RFP: -3

How did CC(=O)c1c(COC(=O)c2ccc(F)cc2)nc2ccccc2[n+]1[O-] do in these assays?
eIF4H inh: -18; PABP polyA inh: -12; CSC inhib: -12; Rce1 inh: inactive; UUG fidelity: -4; Env fusion inh: 3; MT1-MMP act inh: -1; MT1-MMP act inh RFP: 0

How did COC(=O)C1=C(C)N(C)C(=S)N(C)C1c1ccc(OC)cc1 (configuration not stated) do in these assays?
eIF4H inh: -2; PABP polyA inh: -2; CSC inhib: -1; Rce1 inh: inactive; Env fusion inh: 10; MT1-MMP act inh: -2; MT1-MMP act inh RFP: 3

What do the screens show for `CCOc1ccc(NC(=S)N(C)C)cc1`?
eIF4H inh: -6; PABP polyA inh: -1; CSC inhib: 4; Rce1 inh: inactive; UUG fidelity: -28; Env fusion inh: 7; MT1-MMP act inh: 4; MT1-MMP act inh RFP: 4

Results for O=C(COc1ccc(Cl)cc1)NCc1nnc(SCC(=O)N2CCCC2)o1 ?
eIF4H inh: -3; PABP polyA inh: 9; CSC inhib: -12; Rce1 inh: inactive; UUG fidelity: -11; Env fusion inh: 12; MT1-MMP act inh: 2; MT1-MMP act inh RFP: 5

Results for COc1cc(OC)cc(C(=O)NNC(=O)CN2C(=O)NC3(CCCC3)C2=O)c1 ?
UUG fidelity: -4; Env fusion inh: -5; MT1-MMP act inh: 3; MT1-MMP act inh RFP: 6

Results for CCOC(=O)C1(Cc2cccc(F)c2)CCN(C(=O)c2cnc(C)cn2)CC1 ?
eIF4H inh: -9; PABP polyA inh: -5; CSC inhib: -6; Rce1 inh: inactive; Env fusion inh: 13; MT1-MMP act inh: -2; MT1-MMP act inh RFP: 1

Results for Cc1ncc([N+](=O)[O-])n1CC(=O)Nc1ccc(F)cc1 ?
eIF4H inh: -15; PABP polyA inh: 13; CSC inhib: -16; Rce1 inh: inactive; UUG fidelity: -6; Env fusion inh: 3; MT1-MMP act inh: -2; MT1-MMP act inh RFP: -1

What do the screens show for `CC1(C(=O)Nc2cccnc2)Cc2c(-c3ccc4c(c3)OCO4)ccnc2O1` (configuration not stated)?
UUG fidelity: -12; Env fusion inh: 11; MT1-MMP act inh: -1; MT1-MMP act inh RFP: -2

Results for CSc1sc(C(=O)N(C)C)cc1S(=O)(=O)C(C)C ?
eIF4H inh: 2; PABP polyA inh: -2; CSC inhib: -4; Rce1 inh: inactive; UUG fidelity: -4; Env fusion inh: 0; MT1-MMP act inh: -1; MT1-MMP act inh RFP: 0

Results for CCOc1ccc(CN2C(=O)c3ccccc3C2=O)cc1C(=O)Nc1nnc(SCC)s1 ?
eIF4H inh: -8; PABP polyA inh: 1; CSC inhib: -15; Rce1 inh: inactive; UUG fidelity: -11; Env fusion inh: -1; MT1-MMP act inh: -1; MT1-MMP act inh RFP: -1

What do the screens show for `Cc1cccc(NC(=O)C(=O)NCc2ccccn2)c1`?
eIF4H inh: 0; PABP polyA inh: -2; CSC inhib: -15; Rce1 inh: inactive; UUG fidelity: -9; MT1-MMP act inh: 7; MT1-MMP act inh RFP: 1

Results for Cc1c(C=O)cnn1CCC(=O)O ?
CSC inhib: -15; Rce1 inh: inactive; UUG fidelity: -11; Env fusion inh: 14; MT1-MMP act inh: -1; MT1-MMP act inh RFP: 5

What do the screens show for `CC1CCN(C(=O)CSc2nnc(CNC(=O)c3ccco3)o2)CC1`?
eIF4H inh: 1; PABP polyA inh: 0; CSC inhib: -1; Rce1 inh: inactive; UUG fidelity: -22; Env fusion inh: -26; MT1-MMP act inh: 3; MT1-MMP act inh RFP: 0

Results for CCN(CC)C(=O)CSc1nc2ccccc2c(=O)n1-c1ccccc1OC ?
eIF4H inh: -11; PABP polyA inh: 1; CSC inhib: -5; Rce1 inh: inactive; UUG fidelity: -18; MT1-MMP act inh: -5; MT1-MMP act inh RFP: -1

How did CCCc1nc2ccccc2n1Cc1ccccc1OC do in these assays?
eIF4H inh: -18; PABP polyA inh: 2; CSC inhib: 1; Rce1 inh: inactive; UUG fidelity: -17; Env fusion inh: 3; MT1-MMP act inh: 3; MT1-MMP act inh RFP: -3

Results for COc1ccc(NC2c3ccccc3C(=O)N2c2ccccn2)cc1Cl (configuration not stated) ?
eIF4H inh: 1; PABP polyA inh: -2; CSC inhib: 5; Rce1 inh: inactive; UUG fidelity: -7; Env fusion inh: -9; MT1-MMP act inh: -6; MT1-MMP act inh RFP: -6

Results for CC(NCc1ccc(S(N)(=O)=O)cc1)C(=O)NCc1ccccc1 (configuration not stated) ?
eIF4H inh: 7; PABP polyA inh: 8; CSC inhib: -5; Rce1 inh: inactive; UUG fidelity: -8; Env fusion inh: -3; MT1-MMP act inh: -2; MT1-MMP act inh RFP: -1

Results for CCOC(=O)c1sc(N/N=C/c2ccccc2)nc1C ?
eIF4H inh: -6; PABP polyA inh: 0; CSC inhib: -1; Rce1 inh: inactive; Env fusion inh: -57; MT1-MMP act inh: -1; MT1-MMP act inh RFP: -2

What do the screens show for `COCCN(C(=O)c1ccco1)c1nnc(-c2ccc(OC)c(OC)c2)s1`?
eIF4H inh: 14; PABP polyA inh: 2; CSC inhib: -4; Rce1 inh: inactive; UUG fidelity: -11; MT1-MMP act inh: 4; MT1-MMP act inh RFP: 4

Compound activity (PubChem)
